# Screening data as filed in PubChem.
# Beta2AR agonist: human beta-2 adrenergic receptor agonism by FAP. 0.43% of 340,000 active. P07550. Am2.2-beta2AR cells, FAP receptor internalization, flow cytometry; reference of the scale not given here. response, % (no concentration beside the values). AID 504454;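 active means response above a set limit, near 3 SD of response in nonfluorescent compounds, cut at about 42% in these data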;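 further: stock transfer was 100 nL into about 11 µL; a reference agonist was the positive control; negative values mostly stem from fluorescent compounds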
# Target sequence (P07550 whole entry, looked up): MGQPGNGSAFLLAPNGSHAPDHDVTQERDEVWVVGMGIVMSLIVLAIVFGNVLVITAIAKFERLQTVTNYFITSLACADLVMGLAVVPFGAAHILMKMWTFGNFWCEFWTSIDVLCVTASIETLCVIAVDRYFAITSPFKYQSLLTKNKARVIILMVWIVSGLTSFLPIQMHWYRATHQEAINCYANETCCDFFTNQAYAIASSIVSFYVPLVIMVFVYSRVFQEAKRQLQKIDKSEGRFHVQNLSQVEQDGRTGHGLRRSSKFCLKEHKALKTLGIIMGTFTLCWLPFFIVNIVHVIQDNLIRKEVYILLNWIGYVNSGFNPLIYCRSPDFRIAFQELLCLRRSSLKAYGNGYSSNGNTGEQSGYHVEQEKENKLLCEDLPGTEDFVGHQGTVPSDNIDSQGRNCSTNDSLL
# E coli growth: inhibitors of Escherichia coli growth. OD600 absorbance (test concentration not listed). OD600, 23 h; active compounds read low. AID 1053175. 0.21% of 330,000 active;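 active means OD600 absorbance below the run mean of sample wells minus 3.6 SD, in any replicate, cut at about 0.56 in these data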;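 further: stock transfer was 300 nL into about 60 µL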
# rRNA inh HTS: inhibits bacterial ribosomal RNA function over humanized ribosomes; GFP signal change (wild-type ribosome), % (concentration not given with the values); 1.6% of 350,000 active; E. coli WT GFP vs humanized-ribosome RFP mutants, fluorescence, 24 h; active compounds read low; DMSO median 0, no signal -100;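 active means significant combined selectivity score with lowered wild-type GFP, culture density cut under 30%, mutant RFP and density less affected; inactive means any of these conditions unmet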; further: one replicate is shown; some compounds called inactive have numbers as strong as hits
# HNF4A DNA FP: change in binding of human HNF4 alpha to DNA; HNF4a-FITC DNA binding, fluorescence polarization, 1 h; activity change, % at 10 µM; 0.3% of 360,000 active; AID 1224865; in the data active means activity change above about 30%, passing the limit was not always enough;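 further: controls were the assay level and a saturating level of protein; the project sought stronger binding though the title names inhibitors; some compounds called inactive have numbers as strong as hits; positive values seem to mean higher polarization but the record does not say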
# Target sequence (P41235 whole entry, looked up): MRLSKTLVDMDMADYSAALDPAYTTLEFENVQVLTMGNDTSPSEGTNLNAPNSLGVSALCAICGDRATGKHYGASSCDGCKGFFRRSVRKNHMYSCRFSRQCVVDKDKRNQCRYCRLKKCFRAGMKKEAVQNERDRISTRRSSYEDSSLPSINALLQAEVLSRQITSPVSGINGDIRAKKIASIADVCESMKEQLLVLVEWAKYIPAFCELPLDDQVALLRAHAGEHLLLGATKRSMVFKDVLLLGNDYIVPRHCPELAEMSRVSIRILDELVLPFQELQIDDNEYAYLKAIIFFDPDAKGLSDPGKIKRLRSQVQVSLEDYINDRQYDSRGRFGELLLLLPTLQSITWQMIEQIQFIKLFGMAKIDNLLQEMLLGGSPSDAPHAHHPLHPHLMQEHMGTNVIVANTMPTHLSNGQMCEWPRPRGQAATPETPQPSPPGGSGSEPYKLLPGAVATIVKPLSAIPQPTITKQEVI
# FGF22 binding: FGF22 (human) thermal shift binding | recombinant FGF22 thermal shift, SYPRO orange fluorescence; percent of sucrose octasulfate shift, DMSO zero | calls only at 9.99 µM | 1.5% of 340,000 active;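 active means melting point raised past a set limit in the mean and every replicate; three in four hits are not shown here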
# Target sequence (Q9HCT0 whole entry, looked up): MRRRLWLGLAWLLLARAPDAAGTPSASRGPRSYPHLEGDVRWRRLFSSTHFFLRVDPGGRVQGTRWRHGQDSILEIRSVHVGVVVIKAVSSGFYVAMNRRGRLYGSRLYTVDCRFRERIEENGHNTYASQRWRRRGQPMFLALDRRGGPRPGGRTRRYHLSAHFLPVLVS
# UCH37 DUB inh: human UCH37 deubiquitinating enzyme inhibition. Q9Y5K5. purified proteasome/UCH37, Ub-AMC cleavage fluorescence. inhibition, % (concentration not given with the values). 0.33% of 330,000 active;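 active means mean of two replicates above 20%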;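 further: 0% = compound-free wells with enzyme and 100% = wells lacking proteasome; stock transfer was 100 nL into about 20 µL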
#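 Assay system: Proteasome-bound UCH37. Buffer or medium: pH 7.4 Tris-HCl (50 mM) with ovalbumin, ATP-MgCl2, DTT. Incubation: 30 min preincubation with enzyme, 25 min cleavage at room temperature. Measured by: fluorescence, ex 355 nm, em 460 nm. Read-out basis: percent inhibition. Control set: wells without proteasome as full block, compound-free enzyme plus substrate as uninhibited.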
# ALR inh: human ALR oxidase inhibition via reduced H2O2; P55789; purified ALR, DTT oxidation, H2O2 HRP-luminol luminescence; inhibition, % (concentration not given with the values); 3.8% of 290,000 active;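 active means mean and each replicate at 75% or more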;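 further: stock transfer was 7.5 nL into about 7.5 µL; 0% = neutral wells and 100% = wells with inactivated enzyme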
# rRNA inh HTS OD600: second read-out of rRNA inh HTS, no call of its own (marks repeat the call); OD600 change, %; measured here: OD600 growth;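 optical density of the mix in the first replicate; 0 = DMSO median and -100 = no signal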
# rRNA inh HTS RFP: also measured in rRNA inh HTS; calls as there; RFP signal change, %; measured here: RFP humanized mutant strains;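 first replicate; 0 = DMSO median and -100 = no signal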
# * = called active by the depositor; i = inactive; nt = not tested or not shown. These rows are one share of the data; rates above refer to the full screens.
SMILES,Beta2AR agonist,E coli growth,rRNA inh HTS,rRNA inh HTS OD600,rRNA inh HTS RFP,HNF4A DNA FP,FGF22 binding,UCH37 DUB inh,ALR inh
CC(C)Oc1ccc(C(=O)N2CCCC2C(=O)O)cc1 (stereo unspecified),-4,0.66,nt,nt,nt,1.4,nt,-0.4,-16
CCOC(=O)C1CCN(Cc2cnc(Oc3ccc(Cl)cc3C)s2)CC1,13,0.68,nt,nt,nt,-1.6,nt,3.6,-2
O=C(Nc1nc(=S)ss1)c1ccc(Cl)cc1Cl,8,nt,nt,nt,nt,-1.3,nt,nt,-5
Cc1nn(CCC(=O)N2CCN(S(=O)(=O)c3ccccc3)CC2)c(C)c1C,0,0.68,9,9,0.2,-0.4,i,4.4,29
COc1ccccc1C(=O)N/N=C/c1c[nH]c2ccccc12,-3,nt,7,0,0.9,2.5,i,nt,9
COCCNC(=S)N(CCCO)Cc1cc2cc3c(cc2[nH]c1=O)OCCO3,-2,0.63,9,5,-6.1,1.1,i,-107,-4
O=C(Nc1ccc2c(c1)OCCO2)C1CCC1,-8,0.64,nt,nt,nt,68*,nt,-0.2,-3
O=C(COC(=O)CCS(=O)(=O)c1ccccc1)NC(=O)c1ccc(OC(F)F)cc1,-6,0.71,-3,-8,0.2,1.2,i,2.6,3
CCC(CC)C(=O)N(C)c1c(C)nc2c(OCc3cc(Cl)cc(Cl)c3)cccn12,nt,nt,-28,-53,7.4,0.3,i,nt,nt
Cc1cc(C)cc(N(CC(=O)N2CC=C(c3ccccc3)CC2)S(=O)(=O)c2c(C)noc2C)c1,2,0.78,-5,-15,-11,4.1,i,4.5,2
Cc1c(C)c2cc(Cl)c(OCC(=O)NCCCn3ccnc3)cc2oc1=O,-7,0.66,1,8,-1.6,-0.1,i,-29,-6
COc1ccc(-c2n[nH]c(=S)n2-c2ccc(C)cc2)cc1OC,24,0.7,4,8,-3.8,-0.7,i,1.5,89*
Cc1ccc2nc(SCc3nc4c(cnn4-c4ccccc4)c(=O)[nH]3)[nH]c2c1,15,nt,nt,nt,nt,4.7,nt,nt,0
COc1ccc(OCC(O)Cn2c(Nc3ccccc3)nc3c2c(=O)n(C)c(=O)n3C)cc1 (stereo unspecified),-2,0.73,nt,nt,nt,13,nt,0.3,-26
Cc1ccc(NC(=O)C2(c3ccccc3)CC2(Cl)Cl)cc1C (stereo unspecified),-2,nt,nt,nt,nt,1.7,nt,nt,-4

# Records above marked active in HNF4A DNA FP.
SMILES,Beta2AR agonist,E coli growth,rRNA inh HTS,rRNA inh HTS OD600,rRNA inh HTS RFP,HNF4A DNA FP,FGF22 binding,UCH37 DUB inh,ALR inh
O=C(Nc1ccc2c(c1)OCCO2)C1CCC1,-8,0.64,nt,nt,nt,68*,nt,-0.2,-3

# (next part)
SMILES,Beta2AR agonist,E coli growth,rRNA inh HTS,rRNA inh HTS OD600,rRNA inh HTS RFP,HNF4A DNA FP,FGF22 binding,UCH37 DUB inh,ALR inh
CCOCCSC1=C(C#N)C(c2cccs2)C(C(C)=O)=C(C)N1 (stereo unspecified),6,0.76,nt,nt,nt,1.9,nt,1.7,7
CCOc1ccccc1NC(=O)CCS(=O)(=O)c1ccc2c(c1)CCN2C(C)=O,-11,0.69,0,3,-1.0,3.5,i,3.8,-11
CC(=O)Nc1ccc(N/C=C/C(=O)c2ccc(C)o2)cc1,-1,0.64,6,0,0.7,1.8,i,8.2,9
Cc1ccc(Cc2c(-c3ccc(Cl)cc3)nc3ccc(Br)cn23)cc1,nt,nt,-14,-41,1.3,4.0,i,nt,nt
CCc1cccc(C)c1NC(=O)c1cccc(N(C)C)c1,5,0.72,nt,nt,nt,-2.2,nt,-5.6,8
CCOc1ccc(-c2nc(-c3cccnc3)no2)cc1OCC,-10,0.72,nt,nt,nt,0.4,nt,1.8,39
Cc1cc2c(NC(=O)CCCC(=O)O)cccc2nn1,1,0.69,-7,-12,-1.5,3.7,i,2.0,-31
O=C(COC(=O)Cc1c(Cl)cccc1Cl)NC1CCCC1,-12,0.71,-17,-13,1.5,-0.2,i,-4.6,15
COc1cccc(/C=N/NC(=O)C[n+]2ccccc2)c1O,-3,nt,nt,nt,nt,0.6,nt,nt,57
Cc1nc(CCNC(=O)Cc2ccc(Cl)cc2)cs1,2,0.75,7,10,-2.0,4.6,i,0.6,-6
CC(C)(C)c1ccc(C(=O)NCCNC(=O)c2ccco2)cc1,2,0.67,4,-19,1.5,4.9,i,3.8,-17
CC1CN(C(=O)/C=C/c2ccccc2[N+](=O)[O-])CC(C)O1 (stereo unspecified),3,nt,2,2,-0.9,5.2,i,-1.4,-6
C/C(=N\NC(=O)C(O)c1ccccc1)c1cccnc1 (stereo unspecified),2,nt,0,1,-1.7,-6.8,i,nt,-12
CC(C)COC(=O)N1CCCCC1c1cc(C(=O)NCc2ccc(F)cc2)no1 (stereo unspecified),nt,nt,-11,-16,4.5,-5.9,i,nt,nt
CCc1ccc2[nH]c(C(=O)Nc3ccc(Br)c(C)n3)cc2c1,1,0.7,6,14,3.0,1.2,i,-0.3,nt
O=C(O)C1CC(O)CN1C(=S)Nc1ccccc1 (stereo unspecified),0,0.69,18,12,2.0,1.3,i,3.8,-4
COc1ccc(CC(=O)OCC(=O)NCCc2ccccc2)cc1OC,-3,0.64,-17,-34,2.3,4.3,i,-0.8,-8
O=c1[nH]c(/C(Cl)=C/c2cc(Cl)ccc2O)nc2cc(Cl)ccc12,5,0.69,-50,-79,-18,1.2,i,4.3,nt
Cc1ccc(C(=O)Nc2ccc(NC(=O)c3cccs3)cc2)cc1[N+](=O)[O-],-5,0.69,12,17,3.1,3.6,i,1.8,-9
c1ccc(Oc2ccccc2-c2cc(NCCc3cccnc3)n3nccc3n2)cc1,nt,nt,-10,-9,0.4,0.8,i,nt,nt
Cc1ccc(C)c(NC(=O)CN(C)S(=O)(=O)c2ccc(F)cc2)c1,15,0.67,nt,nt,nt,-1.5,nt,-0.6,-3
CC(=O)Nc1ccc(OCC(O)CN2CCN(c3cc(Cl)ccc3C)CC2)cc1 (stereo unspecified),2,0.63,nt,nt,nt,3.5,nt,0.6,-3
O=C(Nc1ccc(F)cc1F)c1cc2n(n1)C(C(F)(F)F)C1CCCCC1N2 (stereo unspecified),-7,0.79,nt,nt,nt,1.4,nt,0.9,nt
CCC(CC)NC(=O)COC(=O)c1ccc(OCC(=O)Nc2ccccc2OC)c(OC)c1,-2,0.73,nt,nt,nt,-2.5,nt,1.9,0
COc1cc(OC)cc(C(=O)NC(=S)Nc2ccc(NC(=O)c3ccco3)cc2)c1,-12,0.72,nt,nt,nt,-2.5,nt,6.6,-6
O=C(CCc1ccccc1)NNC(=S)NCc1ccc(Cl)cc1,-3,0.71,-25,-34,1.1,2.1,i,0.5,-4
Cc1[nH]c(=O)[nH]c(=O)c1S(=O)(=O)N1CCCC(C(=O)NCc2ccco2)C1 (stereo unspecified),2,0.77,nt,nt,nt,-1.5,nt,5.2,nt
COc1ccc(OC)c(C(=O)CSc2nc3ncccc3[nH]2)c1,-17,0.69,nt,nt,nt,3.0,nt,4.5,-31
Cc1cc(C)nc(-n2nc(C)cc2NC(=O)c2cc3ccccc3oc2=O)n1,-13,0.7,0,-8,0.1,1.1,i,1.0,1
O=C(N/N=C1\CCSc2ccc(F)cc21)c1cccnc1,5,nt,11,12,4.0,3.6,i,nt,-4
[O-]/C(=C(\C(=S)Nc1ccccc1F)[n+]1ccccc1)c1ccc(-c2ccccc2)cc1,-1,0.7,-15,0,2.2,7.3,i,3.9,7
COC(=O)CN1C(=O)COc2ccc(S(=O)(=O)N3CCCC3)cc21,-5,0.69,6,13,3.8,0.7,i,2.1,-3
NC(=O)CSc1ncnc2c1cnn2Cc1ccccc1,0,0.72,nt,nt,nt,-6.6,nt,0.7,-1
COc1ccccc1N1CCN(C(=O)C2=CC=CN3CCS(=O)(=O)N=C23)CC1,-2,0.71,8,21,-1.9,2.1,i,2.9,31
CCOc1ccc(/C=N/NC(=O)C(O)c2ccccc2)c(O)c1 (stereo unspecified),7,nt,-7,-2,-2.5,-0.6,i,nt,6
CCN(CC)S(=O)(=O)c1csc(C(=O)OCC(=O)c2ccccc2)c1,3,0.69,nt,nt,nt,-1.9,nt,2.9,3
Cc1sc2nc(CSc3ccccc3)nc(N3CCC(C(N)=O)CC3)c2c1C,-6,0.67,-52,-73,-18,5.5,nt,3.2,-6
C=CCCC(=O)N(C)CCO,-5,0.67,12,10,-5.0,6.6,i,1.9,nt
C=CCn1c(=O)c2ccccc2n2c(SCC(=O)NCCc3ccccc3)nnc12,0,0.73,nt,nt,nt,-3.2,nt,-1.6,-7
CC(=O)Nc1ccc(S(=O)(=O)Nc2cccc(NC(=O)c3ccco3)c2)cc1,-14,0.7,0,-6,-17,-0.6,i,3.0,-3
COc1cc(C(=O)NN2C(=O)NC3(CCC(C)CC3)C2=O)ccc1OC(F)F (stereo unspecified),-5,0.66,3,0,0.4,1.6,i,3.8,nt
CC12CCC(C(=O)NCc3ccc4c(c3)OCO4)(CC1=O)C2(C)C (stereo unspecified),-2,0.73,nt,nt,nt,3.7,nt,1.4,5
COCCn1c(SCC(=O)Nc2cc(C)on2)nnc1-c1ccco1,5,0.69,nt,nt,nt,-0.1,nt,4.7,-1
COC(=O)Cc1cc(=O)n2[nH]cnc2n1,1,0.72,nt,nt,nt,-2.2,nt,-1.1,-2
CN(C(=O)c1cccc(NC(=O)Cc2cccc([N+](=O)[O-])c2)c1)C1CCCCC1,4,0.68,0,8,-2.4,2.3,i,2.9,3

# Looked up above.
# C=CCCC(=O)N(C)CCO in rRNA inh HTS RFP → -5.0
# COC(=O)Cc1cc(=O)n2[nH]cnc2n1 in UCH37 DUB inh → -1.1
# COC(=O)CN1C(=O)COc2ccc(S(=O)(=O)N3CCCC3)cc21 in E coli growth → 0.69
# CCOc1ccc(/C=N/NC(=O)C(O)c2ccccc2)c(O)c1 (stereo unspecified) in HNF4A DNA FP → -0.6

# (continued)
SMILES,Beta2AR agonist,E coli growth,rRNA inh HTS,rRNA inh HTS OD600,rRNA inh HTS RFP,HNF4A DNA FP,FGF22 binding,UCH37 DUB inh,ALR inh
CCOc1cc(C(=O)OC(C)C(=O)Nc2ccc(S(N)(=O)=O)cc2)ccc1OCC(=O)N1CCOCC1 (stereo unspecified),-1,0.65,9,10,-1.6,1.2,i,0.8,-2
O=C1CC(SCc2nc3ccccc3[nH]2)C(=O)N1c1cccc(F)c1 (stereo unspecified),-13,nt,-8,10,16,1.5,i,nt,56
COc1ccc2c(c1)CCC/C2=N\Nc1nc(C(=O)NN)cs1,8,nt,-12,-4,1.6,-0.5,i,nt,6
COc1ccc(C)cc1NS(=O)(=O)c1ccc2c(c1)oc(=O)n2C,-3,0.69,14,2,3.3,-1.1,i,5.1,-4
C=CCn1c(Oc2cc(C)ccc2C)nc2c1c(=O)n(C)c(=O)n2C,9,0.67,-16,-17,3.1,0.3,i,-0.4,0
COC(=O)C(OC(=O)c1ccc(OC)cc1)C(=O)OC,0,0.69,nt,nt,nt,4.3,nt,-0.5,5
Cc1nc2ccccc2c(=O)n1/N=C/c1ccc(O)c(O)c1O,6,nt,23,10,8.5,-29,i,nt,98*
O=C1c2ccccc2NC(c2ccc(-c3cccc(Cl)c3)o2)N1O (stereo unspecified),5,0.63,-28,-25,-6.8,0.8,i,-14,96*
CCOc1cc(/C=C2/N=C(C)C(C(=O)OC)=C2O)ccc1O,9,0.64,6,-2,0.0,8.3,i,2.8,99*
CCC(C)NC(=O)CN(C1CCCCC1)S(=O)(=O)c1ccc(F)cc1 (stereo unspecified),4,0.62,nt,nt,nt,-2.9,i,-0.2,-1
CC1Cc2ccccc2C(=O)N1 (stereo unspecified),3,0.72,nt,nt,nt,-1.8,nt,1.4,nt
